# Vif TR-FRET = inhibitors of Vif binding to APOBEC3G peptide, primary screen, biochemical, TR-FRET, GST-Vif 1-94, biotin-A3G peptide, dose response retest (AID 1117319); Virion infectivity factor (Human immunodeficiency virus type 1 group M subtype B (isolate …; TR-FRET GST-Vif / biotin-A3G peptide binding; higher % means a stronger effect; test concentration not given here; strong numbers were not always called active; inhibition, %, or IC50 in µM where a hit was titrated; 260,000 compounds, 0.57% hits;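 active = above the screen mean plus three standard deviations and confirmed in dose response; inconclusive = results disagree or hit not tested in dose response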;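 also: Vif residues 1-94 fused to GST binding biotinylated APOBEC3G peptide 110-148; 0% = full assay without inhibitor and 100% = GST in place of GST-Vif; retest series ran down from 100 µM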
# Ecoli growth = E. coli growth inhibition, primary screen, OD600; Escherichia coli growth, 23 h; active compounds read low; OD600 absorbance (concentration not given with the values); 330,000 compounds, 0.21% hits; AID 1053175, 2014;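 active = OD600 absorbance below the run mean of sample wells minus 3.6 SD, in any replicate, cut at about 0.56 in these data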;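 also: stock transfer was 300 nL into about 60 µL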
# RanGTP-Impb inh = inhibitors of RanGTP-importin-beta interaction, primary screen, biochemical, FRET, CFP-Ran, YFP-importin-beta, homogeneous | Ran GTPase (GTP-bound) - importin-beta complex | cell-free CFP-Ran/YFP-importin-beta FRET ratio | inhibition, % (test concentration not listed) | 300,000 compounds, 1.1% hits;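 active = most replicates above 15%; inconclusive = exactly half above 15%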;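 also: 0% = DMSO wells and 100% = Ran loaded with GDP instead of GTP; wells of about 40 µL received 100 nL stock; the first replicate is given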
# UCH37 DUB inh = inhibitors of human UCH37 deubiquitinase, primary screen, biochemical, Ub-AMC cleavage, fluorescence | inhibition, % (no concentration beside the values) | 330,000 compounds, 0.33% hits | AID 588478, 2011 | Ubiquitin carboxyl-terminal hydrolase isozyme L5 (Homo sapiens), Q9Y5K5 | purified proteasome/UCH37;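 active = mean of two replicates above 20%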;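 also: 0% = compound-free wells with enzyme and 100% = wells lacking proteasome; stock transfer was 100 nL into about 20 µL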
# Target sequence (Q9Y5K5 whole entry, looked up): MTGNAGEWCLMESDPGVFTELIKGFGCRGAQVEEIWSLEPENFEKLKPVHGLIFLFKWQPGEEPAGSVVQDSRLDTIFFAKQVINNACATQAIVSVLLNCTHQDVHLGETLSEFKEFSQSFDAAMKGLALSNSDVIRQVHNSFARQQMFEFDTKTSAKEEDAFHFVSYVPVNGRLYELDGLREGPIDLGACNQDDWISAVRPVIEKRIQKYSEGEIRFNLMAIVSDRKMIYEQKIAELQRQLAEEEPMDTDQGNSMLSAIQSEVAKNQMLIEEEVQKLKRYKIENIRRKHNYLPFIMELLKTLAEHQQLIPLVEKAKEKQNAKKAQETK
#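 Material: Human UCH37 enzyme supplied as purified proteasome complex | Schedule: 30 min compound-proteasome preincubation then 25 min substrate reaction, room temperature | Detection: AMC fluorescence from Ub-AMC cleavage, excitation 355 nm, emission 460 nm | Benchmarks: Wells without proteasome as full block, compound-free enzyme plus substrate as uninhibited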
# HNF4A DNA FP = change in binding of human HNF4A to DNA, primary screen, biochemical, fluorescence polarization, FITC-DNA; 360,000 compounds, 0.3% hits; 1 h; AID 1224865, 2016; Hepatocyte nuclear factor 4-alpha (Homo sapiens), P41235; activity change, % at 10 µM; in the data active = activity change above about 30%, passing the limit was not always enough;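 also: controls were the assay level and a saturating level of protein; the project sought stronger binding though the title names inhibitors; some compounds called inactive have numbers as strong as hits; positive values seem to mean higher polarization but the record does not say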
# FGF22 binding = binders of human FGF22 protein, primary screen, FGF22 synaptogenesis inhibitor project, biophysical, thermal shift, single point; AID 651658, 2012; calls only at 9.99 µM; recombinant FGF22 thermal shift, SYPRO orange fluorescence; percent of sucrose octasulfate shift, DMSO zero; Fibroblast growth factor 22 (Homo sapiens), Q9HCT0; 340,000 compounds, 1.5% hits;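 active = melting point raised past a set limit in the mean and every replicate; inconclusive = no clear call; three in four hits are not shown here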
# Target sequence (Q9HCT0 whole entry, looked up): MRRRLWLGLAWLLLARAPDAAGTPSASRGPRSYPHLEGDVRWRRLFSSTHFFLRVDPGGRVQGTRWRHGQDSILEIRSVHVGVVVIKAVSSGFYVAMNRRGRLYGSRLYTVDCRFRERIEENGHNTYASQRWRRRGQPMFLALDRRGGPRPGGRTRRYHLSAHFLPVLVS
# MLL AF4-AF9 inh = inhibitors of AF4 peptide binding to AF9, primary screen, biochemical, AlphaScreen, biotin-AF4 peptide, FLAG-AF9, single point | AID 651704, 2012 | inhibition, % at 10 µM | 350,000 compounds, 0.47% hits;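 active = every replicate reaching a set inhibition limit, whatever the replicate mean, cut at about 25% in these data; inconclusive = mean inhibition reaches that limit but some replicates miss it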;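 also: 0% = plate neutral control median and 100% = total signal loss; the record names both 10 and 1 µM as test concentration; the first replicate is given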
# Target sequence (P42568 whole entry, looked up): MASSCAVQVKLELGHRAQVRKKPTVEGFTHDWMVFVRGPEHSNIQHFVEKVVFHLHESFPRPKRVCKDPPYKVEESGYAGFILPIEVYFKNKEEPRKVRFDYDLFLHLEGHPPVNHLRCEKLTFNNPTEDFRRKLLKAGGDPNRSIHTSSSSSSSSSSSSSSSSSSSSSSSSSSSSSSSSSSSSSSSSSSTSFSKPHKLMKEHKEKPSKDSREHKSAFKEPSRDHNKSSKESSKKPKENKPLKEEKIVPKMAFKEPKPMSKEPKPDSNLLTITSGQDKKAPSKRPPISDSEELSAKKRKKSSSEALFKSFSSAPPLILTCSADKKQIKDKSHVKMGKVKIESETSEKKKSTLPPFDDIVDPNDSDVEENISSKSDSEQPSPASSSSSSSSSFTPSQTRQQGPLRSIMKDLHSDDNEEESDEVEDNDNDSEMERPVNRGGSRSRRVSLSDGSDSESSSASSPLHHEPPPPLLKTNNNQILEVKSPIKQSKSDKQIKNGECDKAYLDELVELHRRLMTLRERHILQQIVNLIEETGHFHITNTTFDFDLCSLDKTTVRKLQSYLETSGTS
# * marks the source's active call; other numbers are inactive results; i = inactive; ? = inconclusive; / = no result given; & = joins results of further samples.
# The first 4 entries, to show the layout:
SMILES,Vif TR-FRET,Ecoli growth,RanGTP-Impb inh,UCH37 DUB inh,HNF4A DNA FP,FGF22 binding,MLL AF4-AF9 inh
CC(C)(C)C(=O)NC(=S)N1CCCC1,-6.5%,0.694,1.2,3.3,2.8,/,/
Cc1nn(CC(=O)Nc2ccc3c(c2)OCO3)c(C)c1[N+](=O)[O-],-3.1%,0.594,?,1.1,0.1,i,1.0
Cc1ccc(/C=C/C(=O)NCCc2cccc(Cl)c2)o1,15.3%,0.618,1.2,0.0,1.9,i,-6.1
COc1cc(NC(=O)C2CCN(S(=O)(=O)c3cccc4nonc34)CC2)cc(OC)c1,-1.7%,0.734,-1.5,4.2,4.3,/,/

# Results, repeating the preview:
SMILES,Vif TR-FRET,Ecoli growth,RanGTP-Impb inh,UCH37 DUB inh,HNF4A DNA FP,FGF22 binding,MLL AF4-AF9 inh
CC(C)(C)C(=O)NC(=S)N1CCCC1,-6.5%,0.694,1.2,3.3,2.8,/,/
Cc1nn(CC(=O)Nc2ccc3c(c2)OCO3)c(C)c1[N+](=O)[O-],-3.1%,0.594,?,1.1,0.1,i,1.0
Cc1ccc(/C=C/C(=O)NCCc2cccc(Cl)c2)o1,15.3%,0.618,1.2,0.0,1.9,i,-6.1
COc1cc(NC(=O)C2CCN(S(=O)(=O)c3cccc4nonc34)CC2)cc(OC)c1,-1.7%,0.734,-1.5,4.2,4.3,/,/
COc1ccc(C2C(C(=O)N3CCCCC3)c3ccccc3C(=O)N2C)cc1 (stereo not given),15.9%,0.663,7.1,-0.3,0.5,/,/
CCO[C@@H]1OC(C(=O)N2CCN(C)CC2)=C[C@H](C(C)(C)C)[C@H]1CCCO,-14.9%,/,-0.8,2.9,/,/,/
Cn1c(SCc2ccccc2)nnc1-c1ccc(O)cc1,4.5%,0.65,-3.3,2.9,-2.0,i,-0.8
O=c1[nH]c(CSc2nnc3ccccn23)nc2ccccc12,6.3%,0.697,0.7,1.4,-1.3,/,/
Cc1ccc(NC(=O)CSCC(=O)Nc2cccc(S(=O)(=O)N3CCCCCC3)c2)cc1,-8.9%,0.675,/,2.5,-0.2,i,1.4
Cn1c(=O)c(=O)n(C)c2cc(S(=O)(=O)N3CCCC3C(=O)NCc3ccco3)ccc21 (stereo not given),/,0.69,5.3,-0.9,-3.9,i,0.3
Cc1ccc(-c2nc(CS(=O)CC(=O)NCCN3CCCC3)c(C)o2)cc1 (stereo not given),15.2%,0.785,-1.2,0.4,-1.5,i,-0.9
CCC(C)[C@H](NC(=O)OC(C)(C)C)C(=O)N/N=C/c1cccc2nccnc12 (stereo not given in full),31.9%,/,-16.5,/,3.5,i,-29.5
Cc1cccc2sc(NC(=O)CCn3cccc3)nc12,/,0.643,/,5.4,2.6,i,2.5
CC(=O)NC1=NN(C(C)=O)C(c2sccc2C)S1 (stereo not given),-1.2%,0.692,0.5,-1.4,1.1,/,/
O=C(COC(=O)c1ccc(O)cc1)Nc1ccc(S(=O)(=O)N2CCCC2)cc1,/,0.656,/,0.5,-1.6,i,0.7
O=C(Nc1c(F)cc(F)cc1Br)C1CCCO1 (stereo not given),0.9%,0.645,-0.2,-0.9,2.5,/,/
COc1ccc2cc(CCNC(=O)C3CCCC3)c(=O)[nH]c2c1,3.1%,0.727,-2.4,3.8,3.0,i,-9.1
Cc1c(CCC(=O)NCCCn2ccnc2)c(=O)oc2cc3occ(C(C)(C)C)c3cc12,/,0.682,-2.6,-48.8,-0.6,i,14.8
Cc1ccc(NC(=O)COC(=O)CSC(=S)N2CCOCC2)cc1C,-11.5%,0.662,1.4,4.0,6.7,i,-1.1
CCOC(=O)C(NC(=O)c1ccccc1)(N1CCCC1=O)C(F)(F)F (stereo not given),-0.2%,0.734,?,4.0,-2.7,/,/
COc1ccc2oc3cc(C)[n+]([O-])c(-c4ccc(Br)cc4)c3c2c1,/,0.7,-5.9,-11.0,0.9,/,/
CCS(=O)(=O)N1CCCC(C(=O)NCc2ccc(C)cc2)C1 (stereo not given),6.7%,0.657,0.0,9.8,-1.8,/,/
CCOC(=O)c1ccc(NC2c3ccccc3C(=O)N2c2cccnc2)cc1 (stereo not given),11.2%,0.671,0.2,3.7,3.8,i,-8.6
C=CCN1C(=S)N[C@@H]2CS(=O)(=O)C[C@@H]21,-5.2%,0.685,-3.2,0.6,0.8,i,-1.2
O=c1[nH]c(SCc2nc3ccccc3n2Cc2ccccc2)nc2ccccc12,-48.8%,0.723,0.3,4.2,2.7,/,/
CC(Oc1ccccc1)c1ccnn1S(=O)(=O)c1ccccc1 (stereo not given),11.9%,0.736,4.1,1.3,4.5,/,/
CC(=O)Nc1nc2ccc(NC(=O)c3ccco3)cc2s1,-5.3%,0.734,-2.8,-3.2,2.8,/,/
Cc1cccc(C)c1NC(=O)CN(C)C(=O)CCC(=O)N1CCOCC1,-0.9%,0.637,/,2.5,-1.5,i,1.7
O=C(OCc1ccccc1F)c1ccc2c(c1)OCCO2,10.8%,0.704,0.3,1.0,3.3,/,/
Cc1cccc(Oc2ccc(NS(=O)(=O)c3ccc(C)c(C(=O)O)c3)cc2)c1,-3.8%,0.708,/,-0.6,3.1,i,-14.3
Cc1ccc(C)c(NC(=O)C(c2ccccc2)N2CCN(CC(=O)NC3CC3)CC2)c1 (stereo not given),-4.7%,0.684,/,1.8,-3.5,i,-2.9
CCOC(=O)N/N=C/c1cn(Cc2ccc(F)cc2)c2ccccc12,-10.7%,/,-0.4,/,1.2,i,2.4
Cc1ccc(S(=O)(=O)NCC(=O)NCC(=O)N2CCN(c3ncccn3)CC2)cc1C,-2.9%,0.642,-0.6,0.5,-0.9,i,4.7
Cc1ccc(NC2CCCN(C(=O)c3ccoc3C)C2)cc1C (stereo not given),/,0.612,0.0,0.5,-1.9,i,5.0
COc1cccc(NC(=O)CSc2nc(O)c(C)c(=O)n2-c2ccc(C)cc2)c1,5.5%,0.665,-0.2,-1.0,-0.2,i,1.4
COc1ccc(-c2coc3c(C(=O)Nc4cc(OC)c(OC)c(OC)c4)cccc23)c(C)c1,/,/,/,/,-2.6,i,1.4
c1ccc(CCNc2ccc3nncn3n2)cc1,23.1%,0.728,?,0.5,-7.4,i,-2.0
CC1CCN(C(=O)C(NS(=O)(=O)c2cccc3nsnc23)c2ccccc2)CC1 (stereo not given),-5.9%,0.644,7.0,0.4,3.5,/,/
O=C1COc2ccc(-c3csc(=Nc4ccc(OC(F)F)cc4)n3CC3CCCO3)cc2N1 (stereo not given),-31.1%,0.748,0.9,3.3,1.9,/,/
O=C1NC[C@@H](CCCCN2C[C@H](Cc3ccc(O)cc3)N(Cc3ccccc3)C(=O)C2=O)N(CCC2CCCCC2)C1=O,/,/,/,/,-3.5,i,-1.3
CC(C)N1C(=S)SC(C)(C)C1n1oc(=O)n(-c2ccc(Cl)c(Cl)c2)c1=O (stereo not given),1.6%,0.692,-3.5,0.9,-3.7,/,/
Cc1ccc(C)c(N2CCN(C(=O)c3ccc4nsnc4c3)CC2)c1,/,0.666,-2.9,-0.5,0.1,i,13.1
COc1cccc(/C=N/NC(=O)CNC(=O)C(c2ccccc2)c2ccccc2)c1O,/,/,7.0,/,-1.1,i,-0.6
O=C1C2C3C=CC(C4CC34)C2C(=O)N1CCCCN1CCN(c2ccc(F)cc2)CC1 (stereo not given),/,0.697,-0.5,5.0,-0.6,i,4.1
C[C@H](CO)N1C[C@H](C)[C@@H](CN(C)C(=O)NC2CCCCC2)Oc2c(NC(=O)c3ccncc3)cccc2C1=O,/,/,/,3.0,2.2,i,4.6&-9.1
CNC(=O)OCc1cccc(COC(=O)NC)n1,18.4%,0.694,-4.6,35.1*,-1.2,/,/
NC(=O)C1CCN(C(=O)c2ccc(CS(=O)(=O)c3c(Cl)cccc3Cl)o2)CC1,3.6%,0.739,0.6,5.9,-1.6,i,1.9
CN(CCOc1ccccc1)C(=O)c1ccc(OC2CCN(C(=O)C3CC3)CC2)cc1,4.3%,0.675,-3.6,7.1,-1.5,i,-1.5
COc1cccc(NC(=O)CSc2nnc(-c3ccco3)c(-c3ccco3)n2)c1,10.2µM*,0.658,-5.2,16.3,-34.7,i,-14.5
O=C(NC(=S)Nc1ccc(C(F)(F)F)cc1)c1csnn1,-6.6%,0.664,-2.1,3.4,-3.1,/,2.3
COc1cc(CNC2CCCC2)c(Br)cc1OCc1ccccc1,5.6%,0.59,3.9,4.5,0.5,i,6.8
COC(=O)C1=C(C(=O)OC)SC(=C2C(=S)C(C)(C)N(C(=O)C(C)C)c3ccccc32)S1,-0.9%,0.735,0.1,6.3,4.0,/,/
NS(=O)(=O)c1ccc(CNC(=O)c2ccc(Cl)c(S(=O)(=O)NCc3ccccc3)c2)cc1,-13.4%,0.694,/,-2.1,1.8,i,-4.2
CCC(C)c1ccccc1NC(=O)CN(C)CC(=O)Nc1ccccc1SC (stereo not given),-4.3%,0.684,1.9,-0.6,-1.1,i,2.2
COC(=O)COc1ccccc1/C=C1/NC(=O)NC1=O,-6.3%,0.654,1.1,2.2,-0.6,/,/
CCOC(=O)N1CCC(N2CCN(S(=O)(=O)c3ccc4ccccc4c3)CC2)CC1,-1.1%,0.628,5.8,4.7,-3.4,/,/
CCCOP(=O)(c1ccc(N(C)C)cc1)C(Nc1ccccc1)c1ccc(C)cc1 (stereo not given),6.8%,0.663,1.4,5.7,-3.8,i,3.0
O=C(NCc1ccc(F)cc1)c1ccc(N2CCc3ccccc32)c([N+](=O)[O-])c1,/,0.691,-6.2,0.0,3.0,i,10.1
N#CCOc1ccccc1CNC[C@H]1O[C@@H](n2cnc3c(=O)[nH]c(N)nc32)[C@H](O)[C@@H]1O,/,/,/,/,2.5,i,2.3
CN(C)C(CNC(=O)c1ccc([N+](=O)[O-])cc1Cl)c1ccco1 (stereo not given),/,0.713,0.5,-2.8,-0.3,i,1.3

# Continuation:
SMILES,Vif TR-FRET,Ecoli growth,RanGTP-Impb inh,UCH37 DUB inh,HNF4A DNA FP,FGF22 binding,MLL AF4-AF9 inh
COc1cc(OC)cc(-c2nnc(SCC(=O)N(C(C)C)C(C)C)o2)c1,-4.9%,0.681,-2.4,2.1,0.1,/,/
Cc1ccc(NC(=O)N2CCCC2c2cccs2)cc1 (stereo not given),-5.6%,0.685,?,-1.8,0.6,i,0.4
COc1ccc(Cl)cc1NC(=O)CN(C)C(=O)CCC(=O)c1cc(C)sc1C,-1.4%,0.63,6.0,0.9,-3.3,i,-0.4
COc1ccc(Nc2nc(-c3ccccc3)c(C(=O)Nc3cccnc3)s2)cc1,/,0.632,-2.0,-108.1,3.9,i,-0.6
CCOC(=O)Cc1c(-c2cccc(Br)c2)nc2c3ccccc3ccn12,/,/,/,/,0.3,i,-1.4
O=C(CSc1nncs1)Nc1nnc(-c2ccccc2)o1,/,0.715,2.8,4.7,1.4,i,5.4
Cc1ccc2nc(Cl)c(C3CC(c4cccs4)=NN3C(=O)CCC(=O)O)cc2c1 (stereo not given),/,0.676,-2.2,-5.0,5.7,/,-2.0
O=S(=O)(c1ccccc1)N1CCN(CCOc2ccc(F)cc2)CC1,-0.4%,/,/,/,2.5,i,4.3

# This is a subset; count on the stated rates, not on these rows.
